Compound activity: PubChem, several laboratories
INS promoter inh: TRM-6 insulin promoter activity inhibition; inhibition, % at 2 µM; actives 0.9% (n = 130,000); AID 1273; TRM-6 cells (human fetal islet line), insulin promoter-eGFP reporter, imaging; reporter expression induced with tamoxifen;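 active = inhibition above the mean plus 3 SD, with well images judged a real hit on visual review, cut at about 60% in these data, passing the limit was not always enough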
RGS16-Gao HTS: modulates binding between human RGS16 and Galphao. O15492+P09471. bead-based flow cytometry RGS16-Galphao binding, fluorescence; actives lie on both sides. binding response (% of control), % at 10 µM. actives 0.38% (n = 220,000);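 active = below 25% or above 175%, edge rows of some plates excepted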;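 also: Galphao activated by GDP with aluminum fluoride before binding; 100% = wells without compound and 0% = beads without RGS; some results beyond the cut were filed as inactive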
Target sequence (O15492 whole entry, looked up): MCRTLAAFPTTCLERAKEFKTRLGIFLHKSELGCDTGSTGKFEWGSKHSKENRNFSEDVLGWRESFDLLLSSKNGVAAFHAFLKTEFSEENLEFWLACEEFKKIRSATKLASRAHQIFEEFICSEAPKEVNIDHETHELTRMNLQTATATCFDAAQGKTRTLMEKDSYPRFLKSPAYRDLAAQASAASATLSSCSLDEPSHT
Target sequence (P09471 whole entry, looked up): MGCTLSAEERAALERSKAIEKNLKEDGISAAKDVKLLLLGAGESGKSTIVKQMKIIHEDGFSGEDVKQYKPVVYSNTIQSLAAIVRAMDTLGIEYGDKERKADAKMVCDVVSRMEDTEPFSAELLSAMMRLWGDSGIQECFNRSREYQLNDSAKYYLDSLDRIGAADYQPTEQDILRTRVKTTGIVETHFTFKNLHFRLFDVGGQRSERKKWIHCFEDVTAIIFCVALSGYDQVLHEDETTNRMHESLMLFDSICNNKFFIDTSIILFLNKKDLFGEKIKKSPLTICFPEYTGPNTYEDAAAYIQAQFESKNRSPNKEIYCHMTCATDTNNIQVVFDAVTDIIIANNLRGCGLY
PKD1 kinase inh: blocks activity of human protein kinase D1. actives 0.056% (n = 200,000). AID 797. PKD1 kinase fluorescence polarization assay. inhibition, %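 (about 10 µM by stock and volumes)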;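 active = inhibition of 50% or more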;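 also: controls were vehicle for no effect and a reference inhibitor for full effect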
HSV augment: increases HSV replication in cells. HSV replication augmentation in cells, fold increase. maximum fold increase. actives 0.005% (n = 220,000). AID 1956;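 active = peak rise of 1.5-fold or more in the series; tested in PC3 cells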;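 also: first round at 10 µM; read as green reporter fluorescence; hits show the peak of a series up to 25 µM; 1 = signal of infected wells without compound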
GALR2 ag: activates the human galanin receptor 2; O43603; actives 0.48% (n = 140,000); AID 803; activation, %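 (tested at 5 µM)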; GALR2-expressing cells, agonist activation read-out;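 active = above mean plus 3 SD of all compounds, about 5% in these data, not always enough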;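 also: 0% = vehicle buffer wells and 100% = reference agonist at full effect; tested in CHO reporter cells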
Target sequence (O43603 whole entry, looked up): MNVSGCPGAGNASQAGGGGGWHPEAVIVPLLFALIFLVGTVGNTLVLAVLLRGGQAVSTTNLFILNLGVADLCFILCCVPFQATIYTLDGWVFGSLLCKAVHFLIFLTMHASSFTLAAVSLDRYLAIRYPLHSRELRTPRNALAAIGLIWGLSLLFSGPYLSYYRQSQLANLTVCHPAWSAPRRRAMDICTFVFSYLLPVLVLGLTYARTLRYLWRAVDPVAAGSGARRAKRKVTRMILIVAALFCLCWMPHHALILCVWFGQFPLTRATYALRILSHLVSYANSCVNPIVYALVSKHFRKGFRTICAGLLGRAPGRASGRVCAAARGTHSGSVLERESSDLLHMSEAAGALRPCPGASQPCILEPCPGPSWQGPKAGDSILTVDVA
INS promoter inh cell count: second read-out of INS promoter inh, no call of its own (marks repeat the call); normalized cell count, %; measured here: cell count, toxicity; reference of the scale not given here;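 cells exposed to compound for 48 h; stained nuclei by imaging scaled within each plate; lower means fewer cells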
HSV augment primary fold: further read-out of HSV augment, marked with its call; fold increase; compound at 10 µM; measured here: primary screen fold increase 10 uM; tested in PC3 cells;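 GFP signal in the first replicate; 1 = infected wells without compound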
* hit, by the source's call.

`CC1=C(C(=O)N2CCOCC2)C(c2ccsc2)C2=C(CCCC2=O)N1` (stereo unspecified) gave INS promoter inh -49, RGS16-Gao HTS 89, PKD1 kinase inh 1, HSV augment inactive, GALR2 ag -2.2, INS promoter inh cell count 92 and HSV augment primary fold 0.89.
Screening COc1cc(/C(C)=N/NC(=O)CSc2nncn2C)ccc1OCc1ccccc1Cl returned INS promoter inh 11, RGS16-Gao HTS 108, PKD1 kinase inh -3, HSV augment inactive, GALR2 ag 0.2, INS promoter inh cell count 106 and HSV augment primary fold 1.
Screening COc1ccc(N/N=C(\C=N\O)C(=O)c2ccc(OC)cc2)cc1 returned INS promoter inh -25, RGS16-Gao HTS 63, PKD1 kinase inh -4, HSV augment inactive, GALR2 ag -0.3, INS promoter inh cell count 77 and HSV augment primary fold 0.87.
`c1ccc(Cn2c(-c3ccccc3)c[n+]3c2SCCC3)cc1` gave RGS16-Gao HTS 99, HSV augment inactive and HSV augment primary fold 1.
For Cc1c(C(=O)O)oc2c1/C(=N\O)CC(C)(C)C2 the results were INS promoter inh -39, RGS16-Gao HTS 104, PKD1 kinase inh -1, HSV augment inactive, GALR2 ag -0.6, INS promoter inh cell count 90 and HSV augment primary fold 1.
`CCCc1ccc(OCCNC(C)=O)cc1` gave INS promoter inh -56, RGS16-Gao HTS 120, PKD1 kinase inh 8, HSV augment inactive, GALR2 ag -2.3, INS promoter inh cell count 119 and HSV augment primary fold 0.75.
C=CCn1c(SCc2csc(-c3ccc(C)cc3)n2)nnc1-c1ccccc1OC was read as RGS16-Gao HTS 101, PKD1 kinase inh -2, HSV augment inactive, GALR2 ag -1.0 and HSV augment primary fold 0.93.
`O=S1(=O)CC=C(CSc2nc3ccccc3[nH]2)C1` gave INS promoter inh 40, RGS16-Gao HTS 100, PKD1 kinase inh -9, HSV augment inactive, GALR2 ag -0.6, INS promoter inh cell count 71 and HSV augment primary fold 0.84.
COc1ccc(NC(=O)CSc2nnc3c4c(nc(-c5ccccc5)n23)CC(C)(C)OC4)cc1 was read as INS promoter inh 52, RGS16-Gao HTS 62, PKD1 kinase inh -11, HSV augment inactive, GALR2 ag -0.7, INS promoter inh cell count 70 and HSV augment primary fold 0.94.
For O=C(NCc1ccc2c(c1)OCO2)C1CCN(c2ccc(S(=O)(=O)N3CCCC3)cc2)CC1 the results were INS promoter inh -36, RGS16-Gao HTS 102, PKD1 kinase inh 0, HSV augment inactive, GALR2 ag -1.8, INS promoter inh cell count 52 and HSV augment primary fold 0.81.
For Cn1c(=O)oc2cc(S(=O)(=O)Nc3ccc4c(c3)OCCO4)ccc21 the results were INS promoter inh -314, RGS16-Gao HTS 101, PKD1 kinase inh 4, HSV augment inactive, GALR2 ag -2.1, INS promoter inh cell count 51 and HSV augment primary fold 1.1.
For O=C(Nc1ccccc1C(=O)O)c1ccc(Br)c(S(=O)(=O)NCc2ccccc2)c1 the results were INS promoter inh -224, RGS16-Gao HTS 110, PKD1 kinase inh -7, HSV augment inactive, INS promoter inh cell count 154 and HSV augment primary fold 0.81.
COc1ccccc1N1CCN(C(=O)c2c(-c3c(Cl)cccc3Cl)noc2C)CC1 was read as INS promoter inh -5, RGS16-Gao HTS 102, PKD1 kinase inh -2, HSV augment inactive, GALR2 ag -1.8, INS promoter inh cell count 108 and HSV augment primary fold 0.79.
For O=C(CN1C(=O)CC(c2ccccc2)S(=O)(=O)c2ccccc21)N1CCOCC1 (stereo unspecified) the results were INS promoter inh -7, RGS16-Gao HTS 102, PKD1 kinase inh -5, HSV augment inactive, INS promoter inh cell count 139 and HSV augment primary fold 0.93.
`CCOc1ccc2nc(NC(=O)CCn3cccc3)sc2c1` gave RGS16-Gao HTS 103, PKD1 kinase inh -8, HSV augment inactive, GALR2 ag -3.0 and HSV augment primary fold 0.86.
COc1ccccc1OCCCn1c(=O)oc2ccccc21 was read as INS promoter inh -207, RGS16-Gao HTS 107, PKD1 kinase inh 4, HSV augment inactive, GALR2 ag -2.7, INS promoter inh cell count 78 and HSV augment primary fold 0.97.
Screening CCC(C)[C@H](N)c1nnc(SCC(=O)Nc2cccc(Cl)c2)o1 (stereo partly specified) returned INS promoter inh -90, RGS16-Gao HTS 102, PKD1 kinase inh -2, HSV augment inactive, GALR2 ag -1.1, INS promoter inh cell count 74 and HSV augment primary fold 1.1.
For COc1ccc2[nH]c3c(=O)n(CCCCC(=O)NCCN4CCCC4)c(=S)[nH]c3c2c1 the results were RGS16-Gao HTS 95, PKD1 kinase inh -6, HSV augment inactive, GALR2 ag 0.1 and HSV augment primary fold 1.1.
For Cn1nnnc1SCc1ccc([N+](=O)[O-])cc1 the results were RGS16-Gao HTS 102, PKD1 kinase inh -3, HSV augment inactive, GALR2 ag -0.7 and HSV augment primary fold 0.98.
`Cc1ccc(S(=O)(=O)N(CC(=O)N/N=C/c2ccc(F)cc2)c2cccc3cccnc23)cc1` gave INS promoter inh 23, RGS16-Gao HTS 93, PKD1 kinase inh -5, HSV augment inactive, GALR2 ag -2.0, INS promoter inh cell count 102 and HSV augment primary fold 0.61.
For O=S(=O)(c1ccc(Cl)cc1Cl)n1ccc2cccnc21 the results were INS promoter inh 29, RGS16-Gao HTS 103, PKD1 kinase inh -4, HSV augment inactive, INS promoter inh cell count 128 and HSV augment primary fold 1.1.
Screening O=C(Nc1nnc(-c2ccccc2)s1)c1ccc(F)cc1 returned RGS16-Gao HTS 101, PKD1 kinase inh 4, HSV augment inactive and HSV augment primary fold 0.9.
COc1ccc(-c2cc(-c3cc(F)ccc3O)[nH]n2)cc1OC was read as INS promoter inh 15, RGS16-Gao HTS 101, PKD1 kinase inh 0, HSV augment inactive, GALR2 ag -0.7, INS promoter inh cell count 110 and HSV augment primary fold 0.89.
For CC(=O)OC(Cn1nc(C)cc1C)c1ccccc1 (stereo unspecified) the results were RGS16-Gao HTS 112, PKD1 kinase inh 1, HSV augment inactive, GALR2 ag -2.5 and HSV augment primary fold 0.85.
Screening Cc1nnc(SCc2ccon2)n1-c1ccccc1 returned INS promoter inh 29, RGS16-Gao HTS 104, PKD1 kinase inh -5, HSV augment inactive, GALR2 ag -3.5, INS promoter inh cell count 168 and HSV augment primary fold 0.86.
For Cc1ccc(CSc2nnc3ccc(-c4ccncc4)nn23)cc1 the results were RGS16-Gao HTS 102, PKD1 kinase inh 4, HSV augment inactive and HSV augment primary fold 0.89.
For CCOC(=O)c1c(-c2ccc(C)o2)csc1N the results were INS promoter inh -25, RGS16-Gao HTS 98, PKD1 kinase inh 18, HSV augment inactive, GALR2 ag -1.0, INS promoter inh cell count 71 and HSV augment primary fold 0.93.
Screening CCN(CC)CCNC(=O)C1c2ccccc2C(=O)N(CCOC)C1c1ccc(F)cc1 (stereo unspecified) returned INS promoter inh -30, RGS16-Gao HTS 104, PKD1 kinase inh -7, HSV augment inactive, GALR2 ag -3.9, INS promoter inh cell count 126 and HSV augment primary fold 0.93.
O=C(CNc1ccccc1Cl)N/N=C1\CCCc2ccccc21 was read as RGS16-Gao HTS 102, PKD1 kinase inh 0, HSV augment inactive and HSV augment primary fold 0.93.
O=S(=O)(O)c1cccc(N=Nc2c(O)ccc3ccccc23)c1 was read as RGS16-Gao HTS 97, HSV augment inactive and HSV augment primary fold 1.
For CCCOc1ccc(-c2cn3ccccc3n2)cc1[N+](=O)[O-] the results were RGS16-Gao HTS 108, PKD1 kinase inh -3, HSV augment inactive, GALR2 ag -1.1 and HSV augment primary fold 0.88.
`CC(=NC1CC1)C1=C(O)c2ccccc2C1=O` gave INS promoter inh -6, RGS16-Gao HTS 102, PKD1 kinase inh 4, HSV augment inactive, GALR2 ag -3.7, INS promoter inh cell count 114 and HSV augment primary fold 0.83.
For Cc1ccccc1Nc1nc(N)nc(CSc2nnc3sc4ccccc4n23)n1 the results were INS promoter inh 12, RGS16-Gao HTS 155, PKD1 kinase inh -7, HSV augment inactive, GALR2 ag -0.2, INS promoter inh cell count 90 and HSV augment primary fold 0.89.
Screening Cc1ccc(C)c(-n2nnnc2SCC(=O)c2c(N)n(C)c(=O)n(C)c2=O)c1 returned RGS16-Gao HTS 97, PKD1 kinase inh -3, HSV augment inactive and HSV augment primary fold 0.98.
`CCCc1nc(NC2CCCCC2)c(C#N)c2c1COC(C)(C)C2` gave INS promoter inh 21, RGS16-Gao HTS 100, PKD1 kinase inh -11, HSV augment inactive, GALR2 ag -1.0, INS promoter inh cell count 130 and HSV augment primary fold 0.78.
`COc1ccc(/C=N/NC(=O)c2nc(Cl)c(Cl)c(N)c2Cl)cc1COc1ccc(F)cc1F` gave INS promoter inh -5, RGS16-Gao HTS 100, PKD1 kinase inh -8, HSV augment inactive, GALR2 ag 1.5, INS promoter inh cell count 72 and HSV augment primary fold 0.95.
CSc1ccc(/C=N/n2c(C)nnc2C)cc1 was read as INS promoter inh 22, RGS16-Gao HTS 111, PKD1 kinase inh -4, HSV augment inactive, INS promoter inh cell count 110 and HSV augment primary fold 0.89.
Fc1ccc(C(c2nnnn2C2CCCCC2)N2CCCC2)cc1 (stereo unspecified) was read as RGS16-Gao HTS 105, PKD1 kinase inh 1, HSV augment inactive and HSV augment primary fold 1.1.
For COC(=O)c1cc(NS(=O)(=O)c2ccc(N3CCCCCC3)c([N+](=O)[O-])c2)cc(C(=O)OC)c1 the results were INS promoter inh 8, RGS16-Gao HTS 104, PKD1 kinase inh 7, HSV augment inactive, GALR2 ag -2.2, INS promoter inh cell count 90 and HSV augment primary fold 0.89.
For CN1N=C(c2ccc(F)c(F)c2)CSC1=NCc1ccccc1 the results were INS promoter inh -17, RGS16-Gao HTS 102, PKD1 kinase inh -2, HSV augment inactive, INS promoter inh cell count 184 and HSV augment primary fold 0.95.

An excerpt from above in order of formula weight, ascending.
For CCOC(=O)c1c(-c2ccc(C)o2)csc1N the results were INS promoter inh -25, RGS16-Gao HTS 98, PKD1 kinase inh 18, HSV augment inactive, GALR2 ag -1.0, INS promoter inh cell count 71 and HSV augment primary fold 0.93.
For COC(=O)c1cc(NS(=O)(=O)c2ccc(N3CCCCCC3)c([N+](=O)[O-])c2)cc(C(=O)OC)c1 the results were INS promoter inh 8, RGS16-Gao HTS 104, PKD1 kinase inh 7, HSV augment inactive, GALR2 ag -2.2, INS promoter inh cell count 90 and HSV augment primary fold 0.89.
`COc1ccc(/C=N/NC(=O)c2nc(Cl)c(Cl)c(N)c2Cl)cc1COc1ccc(F)cc1F` gave INS promoter inh -5, RGS16-Gao HTS 100, PKD1 kinase inh -8, HSV augment inactive, GALR2 ag 1.5, INS promoter inh cell count 72 and HSV augment primary fold 0.95.

The list continues:
`NC[C@@H]1O[C@H](C23CC4CC(CC(C4)C2)C3)Cc2c1ccc(O)c2O` gave RGS16-Gao HTS 101, HSV augment inactive and HSV augment primary fold 0.45.
CC1CCC2(CC1)NC(=O)N(CC(=O)Nc1ccccc1-c1ccccc1)C2=O (stereo unspecified) was read as INS promoter inh 21, RGS16-Gao HTS 100, PKD1 kinase inh 0, HSV augment inactive, INS promoter inh cell count 129 and HSV augment primary fold 0.95.
For CC(C)CC(NC(=O)OC(C)(C)C)c1cn([C@@H](Cc2ccc(O)cc2)C(=O)N2CCN(C(=O)OC(C)(C)C)CC2)nn1 (stereo partly specified) the results were RGS16-Gao HTS 75, PKD1 kinase inh -1, HSV augment inactive and HSV augment primary fold 0.95.
`COc1ccc(-c2cc(C(F)(F)F)n3nc(C(=O)Nc4c(C)n(C)n(-c5ccccc5)c4=O)cc3n2)cc1` gave INS promoter inh 27, RGS16-Gao HTS 203, PKD1 kinase inh -2, HSV augment inactive, INS promoter inh cell count 64 and HSV augment primary fold 0.92.
`O=C(NC(=S)NCCN1CCOCC1)c1ccc(Cl)cc1Cl` gave RGS16-Gao HTS 106, PKD1 kinase inh -7, HSV augment inactive, GALR2 ag 0.4 and HSV augment primary fold 0.95.
`O=C(CN1C(=O)NC2(CCCCC2)C1=O)Nc1ccc(N2CCOCC2)cc1` gave INS promoter inh 27, RGS16-Gao HTS 83, PKD1 kinase inh 3, HSV augment inactive, GALR2 ag -2.3, INS promoter inh cell count 94 and HSV augment primary fold 1.
CC(C)c1ccc(C(=O)NCCCc2ccccc2)cc1 was read as RGS16-Gao HTS 103, PKD1 kinase inh -1, HSV augment inactive, GALR2 ag -2.0 and HSV augment primary fold 0.9.
For CCN1C(=O)/C(=C\C=C\c2ccccc2[N+](=O)[O-])SC1=S the results were INS promoter inh 22, RGS16-Gao HTS 100, PKD1 kinase inh -3, HSV augment inactive, INS promoter inh cell count 135 and HSV augment primary fold 0.57.
For COc1ccc2nc(N)sc2c1 the results were INS promoter inh -37, RGS16-Gao HTS 99, PKD1 kinase inh 4, HSV augment inactive, GALR2 ag -0.9, INS promoter inh cell count 136 and HSV augment primary fold 1.1.
`CCN(CC)S(=O)(=O)c1cccc(C(=O)N/N=C/c2ccccn2)c1` gave RGS16-Gao HTS 99, PKD1 kinase inh -5, HSV augment inactive and HSV augment primary fold 0.92.
Screening COC(c1ccccc1)c1nnc(CCC(=O)N(C)CCCC2CCCC2)o1 (stereo unspecified) returned RGS16-Gao HTS 102, PKD1 kinase inh 6, HSV augment inactive and HSV augment primary fold 0.88.
